HNF4A DNA FP: change in binding of human HNF4 alpha to DNA. 360,000 compounds, 0.3% hits. AID 1224865. HNF4a-FITC DNA binding, fluorescence polarization, 1 h. activity change, % at 10 µM; in the data active means activity change above about 30%, passing the limit was not always enough;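 further: controls were the assay level and a saturating level of protein; the project sought stronger binding though the title names inhibitors; some compounds called inactive have numbers as strong as hits; positive values seem to mean higher polarization but the record does not say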
Target sequence (P41235 whole entry, looked up): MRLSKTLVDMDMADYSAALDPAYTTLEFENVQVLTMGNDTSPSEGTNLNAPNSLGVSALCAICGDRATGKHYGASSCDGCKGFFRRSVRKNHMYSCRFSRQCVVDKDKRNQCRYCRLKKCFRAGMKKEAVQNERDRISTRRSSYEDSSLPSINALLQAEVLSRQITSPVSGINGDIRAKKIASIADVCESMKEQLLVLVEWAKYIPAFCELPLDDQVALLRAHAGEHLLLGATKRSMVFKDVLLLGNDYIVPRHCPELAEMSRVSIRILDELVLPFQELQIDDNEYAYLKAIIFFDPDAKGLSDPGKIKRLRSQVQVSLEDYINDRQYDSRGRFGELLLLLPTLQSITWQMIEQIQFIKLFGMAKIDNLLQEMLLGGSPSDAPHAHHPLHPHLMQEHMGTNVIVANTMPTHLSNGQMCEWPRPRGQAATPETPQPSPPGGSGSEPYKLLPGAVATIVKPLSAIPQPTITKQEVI
Ecoli rRNA inh: inhibits bacterial ribosomal RNA function over humanized ribosomes; GFP signal change (wild-type ribosome), % (no concentration beside the values); 350,000 compounds, 1.6% hits; AID 720706; E. coli WT GFP vs humanized-ribosome RFP mutants, fluorescence, 24 h; active compounds read low; DMSO median 0, no signal -100;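 active means significant combined selectivity score with lowered wild-type GFP, culture density cut under 30%, mutant RFP and density less affected; inactive means any of these conditions unmet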; further: one replicate is shown; some compounds called inactive have numbers as strong as hits
E coli growth: E. coli growth inhibition | Escherichia coli growth, OD600, 23 h; active compounds read low | OD600 absorbance (no concentration beside the values) | 330,000 compounds, 0.21% hits | AID 1053175;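 active means OD600 absorbance below the run mean of sample wells minus 3.6 SD, in any replicate, cut at about 0.56 in these data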;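 further: stock transfer was 300 nL into about 60 µL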
AF4-AF9 inh: inhibitors of human MLL-AF4/AF9 interaction; 350,000 compounds, 0.47% hits; AlphaScreen, biotin-AF4 peptide binding to FLAG-AF9; P42568; inhibition, % at 10 µM;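 active means every replicate reaching a set inhibition limit, whatever the replicate mean, cut at about 25% in these data; inconclusive means mean inhibition reaches that limit but some replicates miss it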;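 further: 0% = plate neutral control median and 100% = total signal loss; the record names both 10 and 1 µM as test concentration; the first replicate is given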
ALR H2O2 inh: inhibitors of human sulfhydryl oxidase ALR; inhibition, % (no concentration beside the values); P55789; purified ALR, DTT oxidation, H2O2 HRP-luminol luminescence; AID 485317; 290,000 compounds, 3.8% hits;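 active means mean and each replicate at 75% or more; inconclusive means only one of the two met; inactive means neither met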;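 further: stock transfer was 7.5 nL into about 7.5 µL; 0% = neutral wells and 100% = wells with inactivated enzyme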
Target sequence (P55789 whole entry, looked up): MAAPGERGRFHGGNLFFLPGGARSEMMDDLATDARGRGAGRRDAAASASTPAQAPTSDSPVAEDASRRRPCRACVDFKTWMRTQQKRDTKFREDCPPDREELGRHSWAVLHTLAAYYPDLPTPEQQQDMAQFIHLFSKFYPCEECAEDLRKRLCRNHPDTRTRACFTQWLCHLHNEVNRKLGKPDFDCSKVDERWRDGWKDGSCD
FGF22 binding: binders of recombinant human FGF22 by thermal shift; SYPRO orange fluorescence; percent of sucrose octasulfate shift, DMSO zero; Q9HCT0; 340,000 compounds, 1.5% hits; calls only at 9.99 µM;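 active means melting point raised past a set limit in the mean and every replicate; inconclusive means no clear call; three in four hits are not shown here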
Target sequence (Q9HCT0 whole entry, looked up): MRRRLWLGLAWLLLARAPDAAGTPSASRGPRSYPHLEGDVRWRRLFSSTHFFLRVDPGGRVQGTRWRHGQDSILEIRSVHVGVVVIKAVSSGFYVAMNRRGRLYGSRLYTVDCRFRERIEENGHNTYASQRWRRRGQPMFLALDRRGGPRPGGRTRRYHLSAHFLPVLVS
Vif TR-FRET: inhibitors of Vif binding to APOBEC3G peptide, primary screen, biochemical, TR-FRET, GST-Vif 1-94, biotin-A3G peptide, dose response retest (AID 1117319); TR-FRET GST-Vif / biotin-A3G peptide binding; higher % means a stronger effect; test concentration not given here; strong numbers were not always called active; inhibition, %; hits with a dose series show IC50 in µM; 260,000 compounds, 0.57% hits;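 active means above the screen mean plus three standard deviations and confirmed in dose response; inconclusive means results disagree or hit not tested in dose response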;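 further: Vif residues 1-94 fused to GST binding biotinylated APOBEC3G peptide 110-148; 0% = full assay without inhibitor and 100% = GST in place of GST-Vif; retest series ran down from 100 µM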
Ecoli rRNA inh OD600: also measured in Ecoli rRNA inh; calls as there; OD600 change, %; measured here: OD600 growth;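 optical density of the mix in the first replicate; 0 = DMSO median and -100 = no signal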
Ecoli rRNA inh RFP: recorded beside Ecoli rRNA inh, whose call it bears; RFP signal change, %; measured here: RFP humanized mutant strains;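 first replicate; 0 = DMSO median and -100 = no signal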
* hit, by the source's call; i = inactive; ? = inconclusive; . = not tested or not shown; & = joins results of further samples. Some of the compounds tested; rates above refer to the full screens.

SMILES | HNF4A DNA FP | Ecoli rRNA inh | Ecoli rRNA inh OD600 | Ecoli rRNA inh RFP | E coli growth | AF4-AF9 inh | ALR H2O2 inh | FGF22 binding | Vif TR-FRET
COc1ccc(NC(=O)CSc2nc3ccccc3c(=O)n2-c2ccc3c(c2)OCO3)c(OC)c1 | 7.2 | . | . | . | 0.7 | . | -1 | . | -6%&-7%
CC(C)N(C(=NCc1ccccc1)NC(=O)c1ccccc1)C(C)C | 2.1 | 8 | 2 | -10 | 0.66 | -1.2 | 10 | i | .
CCOc1ccc(CNc2nnnn2C)cc1OC | -0.6 | -7 | -4 | 0.1 | 0.62 | -0.1 | -6 | i | -2%
C[C@@H]1CN([C@H](C)CO)C(=O)c2cc(C#Cc3cccnc3)cnc2O[C@@H]1CN(C)C(=O)CN(C)C | . | 1 | -5 | -0.9 | . | -12 | . | i | .
CC(=O)N(C)C[C@@H]1[C@H](c2ccc(-c3ccccc3)cc2)[C@H](CO)N1C(=O)C1CC1 | . | 1 | 7 | -1.4 | . | -2.1 | . | i | .
CCNC(=O)C[C@@H]1CC[C@H]2[C@@H](COc3ccc(NC(=O)Cc4ccccc4)cc3C(=O)N2C)O1 | . | 8 | 5 | 4.9 | . | -2.5 | . | i | .
CCNC(=O)C1(C)CCCN(Cc2ccc3ccccc3c2Br)C1 (centres undefined) | 2.4 | -56 | -79 | -18 | . | -2.6 | . | i | .
Cc1noc(C)c1NC(=O)N[C@H]1C=C[C@@H](CC(=O)N2CCCCC2)O[C@@H]1CO | . | 6 | 3 | -0.6 | . | -0.5 | . | i | .
CCOC(=O)Cc1csc(NC(=O)c2ccc(Cl)s2)n1 | 1.3 | -10 | -10 | 6.3 | 0.66 | -2.0 | . | i | 1%
COc1ccc(C(=O)NCCc2nnc3ccc(SCC(=O)NCc4ccc(F)cc4)nn23)cc1 | 1.3 | 0 | 5 | -0.4 | 0.72 | -1.4 | -29 | i | .
CCN(CC(=O)Nc1ccc(OC)cc1)C(=O)CSCC(=O)Nc1cc(C)on1 | -7.0 | 13 | 16 | 3.2 | 0.67 | ? | -3 | i | -6%
O=[N+]([O-])c1ccccc1-c1nc(-c2ccc(Br)o2)no1 | -1.9 | 9 | 10 | 11 | 0.67 | 13 | . | i | .
CC(C)CC#Cc1ccc2c(c1)O[C@@H](CN(C)CC1CC1)[C@@H](C)CN([C@H](C)CO)S2(=O)=O | . | -3 | -3 | 4.3 | . | -1.8 | . | i | .
COc1ccc(CCNc2oc(COc3ccc(F)cc3)nc2C#N)cc1 | -5.4 | . | . | . | 0.74 | . | 2 | . | 1%
O=C(Nc1nccs1)[C@H]1[C@H](CO)[C@H]2Cn3c(cccc3=O)[C@@H]1N2C(=O)C1CCC1 | . | 2 | 6 | 0.5 | . | -5.3 | . | i | .

Whole records from above.
Profile of `C[C@@H]1CN([C@H](C)CO)C(=O)c2cc(C#Cc3cccnc3)cnc2O[C@@H]1CN(C)C(=O)CN(C)C` = HNF4A DNA FP = .; Ecoli rRNA inh = 1; Ecoli rRNA inh OD600 = -5; Ecoli rRNA inh RFP = -0.9; E coli growth = .; AF4-AF9 inh = -12; ALR H2O2 inh = .; FGF22 binding = i; Vif TR-FRET = .
Profile of `CCOC(=O)Cc1csc(NC(=O)c2ccc(Cl)s2)n1` = HNF4A DNA FP = 1.3; Ecoli rRNA inh = -10; Ecoli rRNA inh OD600 = -10; Ecoli rRNA inh RFP = 6.3; E coli growth = 0.66; AF4-AF9 inh = -2.0; ALR H2O2 inh = .; FGF22 binding = i; Vif TR-FRET = 1%
Profile of `O=[N+]([O-])c1ccccc1-c1nc(-c2ccc(Br)o2)no1` = HNF4A DNA FP = -1.9; Ecoli rRNA inh = 9; Ecoli rRNA inh OD600 = 10; Ecoli rRNA inh RFP = 11; E coli growth = 0.67; AF4-AF9 inh = 13; ALR H2O2 inh = .; FGF22 binding = i; Vif TR-FRET = .

Next entries follow.
SMILES | HNF4A DNA FP | Ecoli rRNA inh | Ecoli rRNA inh OD600 | Ecoli rRNA inh RFP | E coli growth | AF4-AF9 inh | ALR H2O2 inh | FGF22 binding | Vif TR-FRET
COc1ccc(OCCCC(=O)N2CCCc3ccccc32)cc1 | 0.7 | . | . | . | 0.7 | . | 1 | . | 21%
O=C(CCCc1nc2ccccc2s1)NCc1ccccc1 | -3.9 | -8 | -3 | -3.2 | 0.71 | 2.8 | -3 | i | 1%
OC[C@H]1O[C@@H](c2nc(-c3nc(-c4ccc(F)cc4)no3)cs2)[C@H](O)[C@@H]1O | 1.6 | . | . | . | . | -3.2 | . | i | .
C[C@@H]1Cn2cnc(C(=O)N[C@@H](C)C(=O)OC(C)(C)C)c2C(=O)N1 | 2.3 | 9 | 5 | 0.4 | . | -2.7 | . | i | 5%
CN(C)C(=O)C[C@@H]1C=C[C@@H](NS(=O)(=O)c2ccccc2)[C@@H](CO)O1 | . | -1 | 1 | -1.2 | . | -1.0 | . | i | .
C[C@@H]1CN([C@H](C)CO)C(=O)c2cccc(NC(=O)c3ccc(-c4nccs4)cc3)c2O[C@@H]1CN(C)S(=O)(=O)c1cccs1 | . | 3 | 18 | 1.9 | . | -2.1 | . | i | .
Cc1ccc(C(=O)NCC(=O)OCC(=O)NCCNC(=O)COC(=O)CNC(=O)c2ccc(C)cc2)cc1 | -2.3 | 5 | 3 | -0.7 | 0.7 | -0.1 | 2 | . | -12%
O=C(/C=C/c1ccc(S(=O)(=O)N2CCOCC2)cc1)N1CCN(c2ccccc2)CC1 | 0.7 | -2 | -8 | 1.1 | 0.62 | -1.2 | 17 | i | 4%
Cc1ccc(Cn2c(C)c3cnn(CC(=O)NCc4ccccn4)c(=O)c3c2C)cc1 | 4.0 | -2 | 4 | 1.2 | 0.66 | 5.1 | -10 | i | .
COCCNc1nnc(Cc2ccc(OC)c(OC)c2)c(=O)[nH]1 | 1.1 | 5 | 7 | -1.2 | 0.63 | 1.5 | -1 | i | 10%
CCOc1ccccc1NC(=O)c1ccc(NC(=O)C2CCCO2)cc1 (centres undefined) | 0.6 | -5 | -9 | -1.2 | 0.68 | 2.6 | -6 | i | -6%
Nc1n[nH]c(-c2ccccc2)c1-c1ccccc1 | 0.7 | 0 | -7 | -1.4 | 0.65 | 1.7 | 25 | i | -2%
Cc1c(C(=O)N(Cc2ccc(F)cc2)C2CCS(=O)(=O)C2)oc2ccccc12 (centres undefined) | -0.6 | -23* | -15* | 0.1* | 0.66 | -2.9 | -12 | i | 0%
COc1ccc(OCc2cccc(C(=O)N3CCCC3)c2)cc1 | 8.8 | . | . | . | 0.72 | . | -3 | . | 10%
COc1ccc(/C=N\NC(=O)CNC(=O)C2COc3ccccc3O2)cc1[N+](=O)[O-] (centres undefined) | 8.1 | -3 | -3 | 0.9 | . | -13 | -11 | i | .
CC(OC(=O)c1nc(-c2ccccc2)n(-c2ccccc2)n1)C(=O)Nc1cc(Cl)cc(Cl)c1 (centres undefined) | -5.1 | -4 | 2 | 4.7 | 0.67 | 4.9 | -4 | i | .
COCc1cc(C)nc2sc(C(=O)Nc3ccccc3C)c(N)c12 | 4.1 | 0 | 0 | 2.0 | 0.66 | -6.0 | . | i | .
CCOc1ccc(NC(=O)c2ccc(CN3CCc4ccccc4C3)cc2)cc1 | 0.2 | 10 | 2 | -0.9 | 0.72 | 3.0 | -8 | . | -7%
CCOC(=O)CCCCCC(=O)Nc1ccc2c(c1)C(=O)N([C@H](C)CO)C[C@H](C)[C@@H](CN(C)C(=O)Nc1ccc(OC)cc1)O2 | 1.3 | . | . | . | 0.78 | . | -15 | . | .
COc1ccc(-c2ccc3c(c2)O[C@H](CN(C)Cc2cccnc2)[C@H](C)CN([C@@H](C)CO)S3(=O)=O)cc1 | . | -9 | -25 | 1.3 | . | 1.4 | . | i | .
CCN1C(C#N)=C(C#N)N=C(C)CC1(C)C | 1.5 | 12 | 8 | 2.2 | 0.7 | 0.3 | -6 | . | 1%
C[C@@H]1CN([C@H](C)CO)C(=O)c2cc(NC(=O)Nc3ccccc3)ccc2O[C@@H](C)CCCCO[C@H]1CN(C)S(=O)(=O)c1cccs1 | . | 6 | 10 | 1.0 | . | 2.0 | . | i | .
COc1ccc(OC)c(-c2nc(C)sc2CC(=O)O)c1 | 0.8 | . | . | . | 0.68 | . | 1 | . | ?
Cc1cccc(C)c1NC(=O)CN(C)C(=O)c1ccc(-n2cncn2)c([N+](=O)[O-])c1 | 2.3 | 2 | 14 | -2.3 | 0.68 | -1.0 | -11 | i | 1%
COc1cccc(OCc2nc(-c3ccc(Br)o3)no2)c1 | -1.1 | 5 | 15 | 1.0 | 0.71 | -1.2 | 69 | i | 6%
COc1ccccc1C(=O)Nc1c2c(nn1-c1ccc([N+](=O)[O-])cc1)CS(=O)(=O)C2 | -1.3 | 3 | 9 | 0.5 | 0.69 | -0.5 | -1 | i | .
COc1cccc(/C=N/NC(=O)Cn2nc([N+](=O)[O-])cc2C)c1 | 0.7 | 25 | 5 | 0.3 | . | 1.1 | 25 | i | 15%
CN(C)c1ccc(C(=O)c2ccccc2C(=O)O)cc1[N+](=O)[O-] | -5.3 | -5 | -3 | -13 | 0.69 | -1.6 | -5 | i | -6%
Cc1ccc(NC(=O)CCc2c(C)nn(-c3ccc(N4CCOCC4)nn3)c2C)cc1C | -4.4 | -1 | 7 | 1.9 | 0.68 | -5.6 | 0 | i | .
O=[N+]([O-])c1cc([N+](=O)[O-])c2cccnc2c1O | . | -16 | 19 | 3.3 | . | -2.3 | -23 | . | -5%
COc1cccc(NC(=O)N[C@H]2CC[C@@H](CC(=O)Nc3ccccc3)O[C@@H]2CO)c1 | . | 2 | 7 | -1.2 | . | 0.4 | . | i | .
Cc1cc(C)cc(CC(=O)N2CCC2(C)C(=O)NS(=O)(=O)c2cccc(OC(F)F)c2)c1 (centres undefined) | 0.5 | 7 | 11 | 4.3 | . | -5.2 | . | i | .

Some of the entries so far, as a markdown table:
| compound | HNF4A DNA FP | Ecoli rRNA inh | Ecoli rRNA inh OD600 | Ecoli rRNA inh RFP | E coli growth | AF4-AF9 inh | ALR H2O2 inh | FGF22 binding | Vif TR-FRET |
| --- | --- | --- | --- | --- | --- | --- | --- | --- | --- |
| CCOc1ccc(NC(=O)c2ccc(CN3CCc4ccccc4C3)cc2)cc1 | 0.2 | 10 | 2 | -0.9 | 0.72 | 3.0 | -8 | . | -7% |
| CCN1C(C#N)=C(C#N)N=C(C)CC1(C)C | 1.5 | 12 | 8 | 2.2 | 0.7 | 0.3 | -6 | . | 1% |

Some of the entries so far, with each value named:
> COCc1cc(C)nc2sc(C(=O)Nc3ccccc3C)c(N)c12
  HNF4A DNA FP = 4.1	Ecoli rRNA inh = 0	Ecoli rRNA inh OD600 = 0	Ecoli rRNA inh RFP = 2.0	E coli growth = 0.66	AF4-AF9 inh = -6.0	ALR H2O2 inh = .	FGF22 binding = i	Vif TR-FRET = .
> COc1ccccc1C(=O)Nc1c2c(nn1-c1ccc([N+](=O)[O-])cc1)CS(=O)(=O)C2
  HNF4A DNA FP = -1.3	Ecoli rRNA inh = 3	Ecoli rRNA inh OD600 = 9	Ecoli rRNA inh RFP = 0.5	E coli growth = 0.69	AF4-AF9 inh = -0.5	ALR H2O2 inh = -1	FGF22 binding = i	Vif TR-FRET = .

Bioassay records (PubChem BioAssay)
